Screening results from PubChem BioAssay.
miR-21 FLuc – qHTS Assay for Modulators of miRNAs and/orActivators of miR-21. HeLa miR-21 FLuc reporter, luciferase, 48 h. Potency, µM (top dose mostly 38.3 µM), for the others: at the highest dose reporter change, positive = more light. 340,000 tested, under 10 active; active = well fitted rising curve with a large enough effect; inconclusive = small, poorly fitted or top-dose-only effect; inactive = no such curve, though single readings can be large or run the other way;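 further: % of control where 0% means no effect; miR-21 action dims this reporter so a rising signal means less miR-21 action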
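HeLa cells stably expressing CMV-driven firefly luciferase with a downstream miR-21 binding sequence, endogenously expressing miR-21, were treated with titrations (up to about 40uM final) for 48 hours at 37 degree Celsius. Luciferase luminescence was read after lysis.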
Rango-impB inh – qHTS Assay for Inhibitors of Rango (Ran-regulated importin-beta cargo) - Importin beta complex formation. Importin subunit beta-1 (Homo sapiens), Q14974. Rango CFP/YFP FRET sensor + importin beta, 45 min. Potency, µM (highest dose often 92.2 µM), without a hit: at the top dose inhibition of complex formation. 340,000 tested, 0.031% active. AID 540263, 2011; active = rising FRET ratio curve, often small or poorly fitted; inconclusive = mostly compound fluorescence or quenching in the first reads; inactive = flat curves in all reads;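 further: potency means the concentration at half of the fitted maximal effect; 0% = DMSO wells and 100% = buffer wells lacking importin beta; nearly all actives have a fitted effect of over 15% in size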
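Inhibition scored from the CFP 486 nm/YFP 530 nm FRET ratio 45 min after adding 0.125 microM importin beta to 50 nM Rango biosensor preincubated 5 min with compound (room temperature, PBS with DTT, Tween-20, BSA). No-importin wells as positive control.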
Rango release inh – qHTS Assay for Inhibitors of RanGTP induced Rango (Ran-regulated importin-beta cargo) - Importin beta complex dissociation; Snurportin-1 (Homo sapiens) + GTP-binding nuclear protein Ran (Homo sapiens) + Importin …; Biochemical FRET Rango-importin beta, RanGTP-induced dissociation; Potency, µM (highest dose often 46.1 µM), for the others: top-dose activity change, negative = inhibition; 340,000 tested, 0.071% active; AID 540253, 2011; active means falling FRET ratio curve, often poorly fitted, with flat reads before Ran was added; inconclusive means other falling curves, or compound fluorescence or quenching; inactive means flat or rising ratio curve;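 further: potency means the concentration at half of the fitted maximal effect; % of control where 0% means no effect; nearly all actives have a fitted effect of over 45% in size; -100% = wells without RanGTP and RCC1; the record marks most hits as doubtful in a second field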
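FRET read at 45 min, room temperature: inhibitors block the CFP/YFP signal rise when RanGTP (0.6 uM Ran, 2 mM GTP, 0.2 uM RCC1) frees Rango (0.1 uM) from importin beta (0.25 uM). Pre-read after 5 min compound exposure flags interference.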
GLA inh pH 4.5 – qHTS Assay for Inhibitors of Human alpha-Galactosidase at pH 4.5; purified enzyme, 4-MU-alpha-Gal fluorescence, pH 4.5; activity change, negative = inhibition, % at 105 µM; 230,000 tested, under 10 active; AID 1467, 2008; inconclusive = small, poorly fitted or top-dose-only inhibition, or a rising curve; inactive = flat fitted curve, though single readings scatter; no compound was filed as active;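 further: 0% = full activity with enzyme and -100% = basal without enzyme; dose as in the result columns while the protocol names 77 µM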
Target sequence (P06280 whole entry, looked up): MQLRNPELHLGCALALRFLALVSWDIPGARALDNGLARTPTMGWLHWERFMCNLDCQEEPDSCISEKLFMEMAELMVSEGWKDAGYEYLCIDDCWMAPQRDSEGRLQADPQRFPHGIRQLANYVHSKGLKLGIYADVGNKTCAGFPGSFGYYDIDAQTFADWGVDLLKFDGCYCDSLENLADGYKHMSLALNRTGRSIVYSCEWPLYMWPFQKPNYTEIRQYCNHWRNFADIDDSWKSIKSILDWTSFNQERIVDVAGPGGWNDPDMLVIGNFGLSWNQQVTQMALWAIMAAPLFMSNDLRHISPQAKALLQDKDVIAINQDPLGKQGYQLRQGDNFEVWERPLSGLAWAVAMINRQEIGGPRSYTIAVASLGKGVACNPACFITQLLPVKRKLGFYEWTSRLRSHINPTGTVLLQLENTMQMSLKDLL
An asterisk follows results filed as active; ? = inconclusive; . = not tested or not shown; & = joins results of further samples; [ ] = remark or other dose.

No.	canonical_smiles	miR-21 FLuc	Rango-impB inh
1	Cc1c(C(=O)OC(C)CCN(C)C)oc2ccccc12 (configuration not stated)	-6%	0.1%
2	O=C(/C=C/c1ccc(OC(F)F)cc1)Nc1cccc(S(=O)(=O)N2CCOCC2)c1	23%	1.2%
3	COc1ccc(NC(=S)N(CCCN2CCCCC2)Cc2cccs2)cc1	-13%	3.1%
4	CC1CCCN(C(=O)Cn2cnc3c2c(=O)n(C)c(=O)n3C)C1 (configuration not stated)	0%	-2.1%
5	CCN(CC(=O)Nc1ccccc1OC)C(=O)CSCc1c(C)noc1C	-4%	-0.2%
6	Cc1ccc(Sc2cc(C)nc(-c3ccccn3)n2)cc1	10%	0.5%
7	O=C(CSc1nnc(-c2ccncc2)n1-c1ccc(Cl)cc1)Nc1ccc(C(=O)O)cc1	-2%	3.1%
8	COc1ccc(OCC(=O)Nc2ccc(S(=O)(=O)N3CCN(C)CC3)cc2)cc1	1%	-0.7%

No.	Rango release inh	GLA inh pH 4.5
1	13%	-10
2	-6%	.
3	-13%	0
4	25%	-4
5	0%	.
6	1%	4
7	9%	2
8	-3%	0

Going on with the list.
No.	canonical_smiles	miR-21 FLuc	Rango-impB inh
9	Cc1ccc(N(C(=O)c2csnn2)C(C(=O)NC2CCCC2)c2ccccn2)cc1 (configuration not stated)	-1%	-1.5%
10	CCCCNC(=O)CCc1nc2cccnc2n1Cc1ccc(OC)cc1	-6%	-0.6%
11	CCn1nc(C(=O)NCCc2ccc3c(c2)OCCO3)c2ccccc2c1=O	.	-1.9%
12	CCCC(=O)Nc1ccccc1N1CCN(C(=O)c2ccccc2)CC1	0%	-0.3%
13	COc1ccc2[nH]c(=O)c(CN(C(=O)COc3ccccc3)C(C)C)cc2c1	-16%	1.5%
14	COc1ccc(/C=N/NC(=O)COc2cccc3cccnc23)cc1OC	-6%	-1.6%
15	COc1ccc(C2=C(CN(C)C)C(c3ccccc3)c3ccccc3O2)cc1 (configuration not stated)	11%&1%	-1.9%
16	COCCn1c(SCC(=O)NNC(=O)c2ccc(OC)c(OC)c2)nc2ccccc2c1=O	-2%	-5.1%

No.	Rango release inh	GLA inh pH 4.5
9	-1%	.
10	13%	1
11	6%	.
12	-6%	3
13	19%	-1
14	9%	-4
15	-2%	4
16	7%	10

New compounds follow.
No.	canonical_smiles	miR-21 FLuc	Rango-impB inh
17	CCc1nnc(NC(=O)COc2ccccc2[N+](=O)[O-])s1	-39%	0.4%
18	C/C(=N\N=C1/NC(=O)C(C)S1)c1ccco1 (configuration not stated)	-11%	-3.3%
19	C(=C\c1ccccc1)/C=N/Nc1nncc(-c2ccccc2)n1	-18%	.
20	COc1ccc(NC(=O)COc2ccc(/C=N/NC(=O)c3cccnc3)cc2OC)cc1	-20%	0.4%
21	CN(C)CCCNC(=O)C[C@H]1C[C@H](C(=O)N2CCOCC2)[C@@]2(C)c3[nH]c4ccc(Cl)cc4c3CCN2C1=O	.	-3.4%
22	O=c1c(Cc2ccc(F)cc2)c(O)ccn1Cc1cccc(Cl)c1	-3%	-1.3%
23	CCCc1cc(=O)[nH]c(SCC(=O)N2CCc3ccccc3C2)n1	.	-4.1%
24	O=C(CNC(=O)Cc1ccccc1)N=Nc1c(O)[nH]c2ccc(Br)cc12	-1%	?

No.	Rango release inh	GLA inh pH 4.5
17	-7%	-15
18	-4%	2
19	.	5
20	-14%	-1
21	-1%	.
22	-8%	4
23	-1%	.
24	-10%	.

(next part)
No.	canonical_smiles	miR-21 FLuc	Rango-impB inh
25	Cc1ccnc(NS(=O)(=O)c2ccc(NC(=O)Cc3cccs3)cc2)n1	-11%	?
26	COc1ccc(C2NC(=S)N(c3ccccc3)C(C)=C2C(=O)Nc2ccccc2)cc1 (configuration not stated)	11%	0.7%
27	CCCCNC(C(=O)Nc1ccc(Cl)c([N+](=O)[O-])c1)c1ccccc1 (configuration not stated)	-2%	5.6%
28	CC(C)Cc1ccc(C(C)C(N)=NCCc2ccccc2)cc1 (configuration not stated)	?	-0.9%
29	Cc1nc(NCC2CCCO2)c2nnn(Cc3ccccc3)c2n1 (configuration not stated)	-19%	3.9%
30	C(#Cc1ccccc1)CN1CCN(c2ccccn2)CC1	-13%	1.4%&-0.4%
31	Cc1cc(C)c(C#N)c(SCC(=O)Nc2ccccc2C)n1	-9%	0.3%
32	Cc1cccc(C(=O)NCC(=O)N2CCN(c3ccc(Cl)cc3)CC2)c1	11%	9.3%

No.	Rango release inh	GLA inh pH 4.5
25	-9%	3
26	-5%	-12
27	4%	1
28	-3%	.
29	3%	1
30	-5%&10%	-2
31	0%	6
32	1%	.

Next part.
No.	canonical_smiles	miR-21 FLuc	Rango-impB inh
33	O=C(N/N=C/c1ccc[nH]1)c1cc(-c2ccc(Cl)cc2)nc2ccccc12	?	0.2%
34	CC(C(=O)OCC(=O)NC1CCCC1)N1C(=O)c2ccccc2C1=O (configuration not stated)	.	2.9%
35	CCOc1ccc(NC(=O)CN(C)C(=O)/C=C/c2ccco2)cc1OCC	.	-2.8%
36	COc1ccc(Br)cc1C(=O)Nc1ccc(Cc2ccncc2)cc1	9%	-0.3%
37	Cc1ccc(C(=O)NC(=S)NCc2cccnc2)c(C)c1	0%	?
38	Cc1ccc(C(=O)NCC(=O)OC(C)C(=O)Nc2ccc(N3CCOCC3)cc2)s1 (configuration not stated)	-23%	-4.5%
39	CC1CCC(NC(=O)COc2ccccc2C(N)=O)CC1 (configuration not stated)	-10%	-1.9%
40	Oc1ccc(CCC2CCCCN2Cc2nc(C3CC3)no2)cc1 (configuration not stated)	1%	-1.0%

No.	Rango release inh	GLA inh pH 4.5
33	3%	-12
34	-2%	.
35	?	.
36	-3%	-20
37	0%	-6
38	24%	4
39	-1%	0
40	8%	8

Next section.
No.	canonical_smiles	miR-21 FLuc	Rango-impB inh
41	O=C(NCc1cccs1)c1csc2c1CCCCC2	-27%	0.5%
42	C=Cn1cc[n+](CC(=O)c2ccc(Cl)c(Cl)c2)c1	2%	-0.8%
43	CCOCCCn1c(SCC(=O)Nc2cc(C(C)(C)C)nn2-c2ccccc2)nc2ccccc2c1=O	-2%	-3.0%
44	Cn1c(=O)n(Cc2ccccc2Br)c2ccccc21	0%	5.6%
45	CN(C)c1nc(SCCOC(=O)Nc2ccccc2)nc(N(C)C)n1	-25%	?
46	O=C(Nc1ccon1)Nc1ccccc1C(F)(F)F	-3%	0.7%
47	Cc1ccc(S(=O)(=O)Nc2nc3cc(C)c(C)cc3[nH]2)cc1	-2%	?
48	CC(C)c1ccc(NC(=O)COC(=O)c2cc(=O)[nH]c3ccccc23)cc1	.	-0.8%

No.	Rango release inh	GLA inh pH 4.5
41	-6%	3
42	-3%	.
43	-23%	-2
44	-5%	2
45	0%	-3
46	-10%	.
47	-19%	8
48	14%	.

Next structures.
No.	canonical_smiles	miR-21 FLuc	Rango-impB inh
49	O=C(COC(=O)CCCC1=NS(=O)(=O)c2ccccc2N1)Nc1ccccc1	-1%	?
50	CCOc1cc(/C=C/C(=O)c2ccc(OC)c(CN3CCOCC3)c2)cc(Br)c1O	?	?
51	COC(=O)c1ccc(C2CC(=O)Nc3cc(OC)c(OC)c(OC)c32)cc1 (configuration not stated)	7%	0.3%
52	Clc1cc(NCc2ccccc2)ncn1	.	-1.2%
53	CCc1ccc(N2CCN(CCNC(=O)Nc3ccccc3)CC2)cc1	1%	3.6%
54	CN(C)CC(C)(C)CNC(=O)c1cc(Br)cc(Br)c1O	-3%	0.2%
55	CCc1nnc(NC(=O)C=C(C)C)s1	-40%	1.5%
56	CCOC(=O)N1CCN(C(=O)CSc2cc(C)nc3c(-c4ccccc4OC)c(C)nn23)CC1	-1%	-4.4%

No.	Rango release inh	GLA inh pH 4.5
49	-4%	.
50	?	.
51	-17%	-11
52	0%	.
53	2%	.
54	14%	-6
55	-1%	3
56	2%	5

Further entries.
No.	canonical_smiles	miR-21 FLuc	Rango-impB inh
57	CCC(=O)NC(=S)Nc1ccc(NC(=O)CC)cc1	-21%	2.3%
58	COc1cc(/C=N/NC(=O)c2ccc(N)cc2)ccc1OC(=O)c1cccc(C)c1	0%	2.5%
59	O=C(NCc1ccc(F)cc1)c1cccc(S(=O)(=O)N2CCCC2)c1	-8%	-3.0%
60	CN(C)S(=O)(=O)c1ccc(C(=O)Nc2cccc(C(=O)N3CCOCC3)c2)cc1	0%	-0.9%
61	O=CC1=C(N2CCOCC2)/C(=C/c2ccc(Cl)cc2)CC1	2%	?
62	O=C(CSc1ncn[nH]1)N1c2ccccc2Sc2ccccc21	15%	4.5%
63	CCCS(=O)(=O)N1CCN(CCN2C(=O)c3cccc4cccc(c34)C2=O)CC1	-7%	6.0%
64	Cc1ccc(CN2CCN(/N=C/c3cc(Br)cc(Br)c3O)CC2)c(C)c1	2%	?

No.	Rango release inh	GLA inh pH 4.5
57	9%	6
58	1%	.
59	-14%	6
60	-6%	.
61	-20%	3
62	11%	4
63	-7%	-3
64	-23%	0

Continued:
No.	canonical_smiles	miR-21 FLuc	Rango-impB inh
65	O=C(CNS(=O)(=O)c1cccs1)NCc1ccccc1	0%	1.3%
66	Cn1c(N2CCCCC2)nc2c1c(=O)n(Cc1cccc(Br)c1)c(=O)n2C	-4%	-4.8%
67	COc1ccc(C(=O)N2CCCC2)cc1	0%	4.8%
68	O=C(Nc1ccc(S(=O)(=O)N2CCCC2)cc1)C1CCCCC1	-6%	-2.4%
69	CCCS(=O)(=O)c1c(S(=O)(=O)CCC)c2c(N)cccn2c1C(=O)c1ccc(Br)cc1	-4%	7.4%
70	O=C(Nc1ccccc1Cl)NC1(C(=O)N2CCCC2)CCCCC1	-7%	1.9%
71	Cn1c(=O)cc(SCC(=O)NCCC2=CCCCC2)c2ccccc21	-9%	-3.3%
72	COc1ccc(S(=O)(=O)N2CCN(c3ccccc3)CC2)cc1	-2%	2.2%

No.	Rango release inh	GLA inh pH 4.5
65	6%	3[21.1 µM]
66	2%	4
67	13%	3
68	-2%	.
69	-12%	0
70	6%	7
71	9%	-19
72	3%	-2

Part of the list above, with two lines to a compound.
Values run as follows: miR-21 FLuc | Rango-impB inh | Rango release inh | GLA inh pH 4.5
#58 COc1cc(/C=N/NC(=O)c2ccc(N)cc2)ccc1OC(=O)c1cccc(C)c1
 : 0% | 2.5% | 1% | .
#59 O=C(NCc1ccc(F)cc1)c1cccc(S(=O)(=O)N2CCCC2)c1
 : -8% | -3.0% | -14% | 6
#60 CN(C)S(=O)(=O)c1ccc(C(=O)Nc2cccc(C(=O)N3CCOCC3)c2)cc1
 : 0% | -0.9% | -6% | .
#61 O=CC1=C(N2CCOCC2)/C(=C/c2ccc(Cl)cc2)CC1
 : 2% | ? | -20% | 3
#62 O=C(CSc1ncn[nH]1)N1c2ccccc2Sc2ccccc21
 : 15% | 4.5% | 11% | 4
#63 CCCS(=O)(=O)N1CCN(CCN2C(=O)c3cccc4cccc(c34)C2=O)CC1
 : -7% | 6.0% | -7% | -3
#64 Cc1ccc(CN2CCN(/N=C/c3cc(Br)cc(Br)c3O)CC2)c(C)c1
 : 2% | ? | -23% | 0
#65 O=C(CNS(=O)(=O)c1cccs1)NCc1ccccc1
 : 0% | 1.3% | 6% | 3[21.1 µM]
#66 Cn1c(N2CCCCC2)nc2c1c(=O)n(Cc1cccc(Br)c1)c(=O)n2C
 : -4% | -4.8% | 2% | 4
#67 COc1ccc(C(=O)N2CCCC2)cc1
 : 0% | 4.8% | 13% | 3
#68 O=C(Nc1ccc(S(=O)(=O)N2CCCC2)cc1)C1CCCCC1
 : -6% | -2.4% | -2% | .
#69 CCCS(=O)(=O)c1c(S(=O)(=O)CCC)c2c(N)cccn2c1C(=O)c1ccc(Br)cc1
 : -4% | 7.4% | -12% | 0

Not all compounds are listed; rates above refer to the full screens.
